Menin-MLL FL inh – displaces fluorescein MLL peptide from human menin | FP activity change, % at 61.4 µM | 290,000 tested, under 10 active | AID 1766 | Fluorescence polarization, fluorescein-MLL peptide displacement from menin; inconclusive = falling polarisation curve, or a change in total fluorescence; inactive = total fluorescence flat and polarisation flat or rising; no compound was filed as active; the % refers to the polarisation; negative = inhibition;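 note: % of control where 0% means no effect; inhibitors lower the polarisation; unlabelled MLL peptide was the positive control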
CtBP-E1A inh – CtBP/E1A binding inhibition; activity change, % (test concentration not listed); 340,000 tested, 0.49% active; AlphaScreen GST-E1A/His-CtBP binding, 1536-well; hits give low values; control for the full effect not named in the record; in the data active means activity change below about -65%; inconclusive means about -30% to -65%; inactive means above about -30%; note: % is set by controls: 0 for no effect and ±100 for the full control effect; compound concentration not given in the record
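Homogeneous bead-based format: GST-tagged E1A captured on glutathione donor beads, His-tagged CtBP on nickel acceptor beads; compounds precede bead addition by 2 h at 37 °C.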
gsp agonist – agonists of gsp mutant (McCune-Albright syndrome); 340,000 tested, 0.13% active; Potency, µM (series often up to 76.9 µM), without a hit: at the highest dose activation (cAMP increase), usual class: activators; gsp mutant cells, cAMP HTRF, 30 min; control for the full effect not named in the record; active = well fitted activation curve with a large enough effect; inconclusive = small, poorly fitted or top-dose-only effect, or another doubt; inactive = no such curve, though single readings can be large or run the other way; cell line not stated here;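 note: phosphodiesterase inhibitor Ro 20-1724 added with compounds to block cAMP breakdown; potency is the fitted concentration of half-maximal effect; nearly all actives have a fitted effect of over 60% in size; about a fifth of the inactives were tested at one dose only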
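Cells in DMEM/10% FBS with G418 were pretreated with compounds in DMSO plus […] (300 uM stock) for 30 min at 37C. cAMP was measured by HTRF (cAMP-d2 plus anti-cAMP antibody-K) after 30 min at room temperature.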
gsp antagonist – gsp mutant antagonism. gsp-mutant cells, cAMP HTRF, 30 min; control for the full effect not named in the record. Potency, µM (top dose mostly 76.9 µM), inactives show top-dose activity change, negative = inhibition, hits mostly inhibitors. 340,000 tested, 0.4% active; active = falling curve of any shape with a large fitted effect; inconclusive = falling curve, mostly with a smaller effect; inactive = flat or rising curve; cell line not stated here;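 note: intracellular cAMP measured with PDE inhibitor Ro 20-1724 present during compound exposure; potency is the fitted concentration of half-maximal effect; % is set by controls: 0 for no effect and ±100 for the full control effect; nearly all actives have a fitted effect of over 65% in size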
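Cells in G418 medium, seeded 16-24 h, 37C; buffer exchange to DPBS + 1 mM CaCl2, 0.5 mM MgCl2, 0.05% BSA; cpds in DMSO + […] (300 uM stock), 30 min 37C; HTRF cAMP detection.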
ClpP mod – qHTS Assay for Activators of ClpP; 340,000 tested, 1.9% active; Potency, µM (doses to about 57.5 µM), for inactives: at the top dose activity change, negative = active; AID 651965, 2013; ATP-dependent Clp protease proteolytic subunit (Bacillus subtilis (strain 168)), P80244; purified B. subtilis ClpP, FRET peptide cleavage, 20 min; active = well fitted falling curve with a large enough effect; inconclusive = small, poorly fitted or top-dose-only effect; inactive = no such curve, though single readings can be large or run the other way; note: potency is the fitted concentration of half-maximal effect; the source files actives as falling curves though it sought activators and does not explain the sign; nearly all actives have a fitted effect of over 65% in size; many hits overshoot -100%
Target sequence (P80244 whole entry, looked up): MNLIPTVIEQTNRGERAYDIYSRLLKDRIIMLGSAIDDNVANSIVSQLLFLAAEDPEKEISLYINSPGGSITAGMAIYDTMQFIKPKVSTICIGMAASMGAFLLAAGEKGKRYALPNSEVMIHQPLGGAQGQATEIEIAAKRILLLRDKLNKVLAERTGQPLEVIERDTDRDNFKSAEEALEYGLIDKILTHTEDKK
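ClpP 10 microg/mL final, pH 8 Tris/KCl buffer with BSA, glycerol, Tween-20; compound pinned in; FRET-FV substrate; RT 20 min; Ex320/Em430; ΔFRET vs ADEP 5.8 microM, DMSO, no enzyme.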
Sfp PPTase inh – Sfp phosphopantetheinyl transferase inhibition. 310,000 tested, 3.5% active. Potency, µM, inactives show max response, negative = inhibition, hits mostly inhibitors. Biochemical Sfp PPTase activity, qHTS. Q9F4F7; active = well fitted inhibition curve with a large enough effect; inconclusive = small, poorly fitted or top-dose-only effect, or another doubt; inactive = no such curve, though single readings can be large or run the other way;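 note: the enzyme is Sfp with the accession as filed and its product quenches rhodamine fluorescence; potency is the fitted concentration of half-maximal effect; 0% = enzyme reaction without inhibitor and -100% = no enzyme wells; top concentration of the series not given in the record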
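Fluorescence-quenching assay: 15 nM Sfp-PPTase preincubated 15 min at room temperature with compound, then 5 uM rhodamine-CoA and 12.5 uM BHQ-2-labelled YbbR peptide added. Fluorescence (ex 525/em 598 nm) read at start and after 30 min; difference gives rate.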
TRPV1 PAM – human TRPV1 potentiation; potentiation, % at 8.33 µM; Q8NER1; TRPV1-expressing cells, Fluo-8 calcium influx, capsaicin EC20 potentiation; host cell line not named in the record; control for the full effect not named in the record; AID 540277; 320,000 tested, 0.02% active; active means potentiation above 80%; inconclusive means 30% to 80%; inactive means below 30%; note: 0% is about no effect
Target sequence (Q8NER1 whole entry, looked up): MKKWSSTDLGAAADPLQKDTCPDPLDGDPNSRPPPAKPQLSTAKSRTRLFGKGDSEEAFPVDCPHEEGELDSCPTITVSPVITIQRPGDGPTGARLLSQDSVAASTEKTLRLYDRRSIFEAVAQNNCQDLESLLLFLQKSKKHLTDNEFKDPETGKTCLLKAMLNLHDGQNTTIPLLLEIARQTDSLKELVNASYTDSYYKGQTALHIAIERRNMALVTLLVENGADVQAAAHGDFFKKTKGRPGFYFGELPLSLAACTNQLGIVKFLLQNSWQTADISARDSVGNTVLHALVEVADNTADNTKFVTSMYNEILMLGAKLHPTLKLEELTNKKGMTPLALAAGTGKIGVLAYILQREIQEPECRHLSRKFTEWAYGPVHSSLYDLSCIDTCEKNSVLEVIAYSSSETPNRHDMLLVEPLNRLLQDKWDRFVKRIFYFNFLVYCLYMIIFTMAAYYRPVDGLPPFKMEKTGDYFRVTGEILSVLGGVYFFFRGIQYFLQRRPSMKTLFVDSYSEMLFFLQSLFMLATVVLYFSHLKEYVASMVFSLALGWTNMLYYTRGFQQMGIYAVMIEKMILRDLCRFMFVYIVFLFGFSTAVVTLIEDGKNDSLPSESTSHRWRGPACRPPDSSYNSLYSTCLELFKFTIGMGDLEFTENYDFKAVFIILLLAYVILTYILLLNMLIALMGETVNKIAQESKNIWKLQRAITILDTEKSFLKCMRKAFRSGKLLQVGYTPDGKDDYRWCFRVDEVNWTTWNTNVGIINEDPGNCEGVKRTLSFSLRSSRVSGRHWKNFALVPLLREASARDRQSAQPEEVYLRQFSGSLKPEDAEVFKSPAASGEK
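Fluo-8 calcium influx in TRPV1-expressing cells, kinetic read (ex 480/em 520 nm). Compound added and read 3 min for agonist activity, followed by capsaicin at EC20 final and 2 min further read for enhancement.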
An asterisk follows results filed as active; ? = inconclusive; nt = not tested or not shown; [ ] = dose if it differs, or a comment.

Below each compound: Menin-MLL FL inh, CtBP-E1A inh, gsp agonist, gsp antagonist, ClpP mod, Sfp PPTase inh, TRPV1 PAM
CCOC(=O)c1ccoc1CSCC(=O)N1CCN(S(=O)(=O)c2ccc(C)cc2)CC1
 : 1.8, 6, 37%, -13%, -0.5%, 4%, -6
COC(=O)C1CCN(C(=O)COC(=O)CNC(=O)c2ccc(Cl)cc2Cl)CC1
 : nt, nt, ?, 2%, -2.5%, nt, 0
O=Cc1cc2c(cc1[B-](F)(F)F)OCO2
 : nt, -6, nt, 0%, -14%, nt, nt
CC1CCCN(S(=O)(=O)c2cc3c4c(c2)C(C)C(=O)N4CCC3)C1 (stereo not given)
 : nt, -1, ?, 6%, -0.2%, 17%, 5
COc1ccc(NC(=O)[C@H](C)NC(=O)C2CCN(S(=O)(=O)c3ccc(OC)cc3)CC2)cc1
 : nt, -7, -42%[inhibitor], -1%, -1.1%, 9%, 18
COc1ccc(N(C)S(=O)(=O)c2cccc(C(=O)Nc3cccc(C(=O)NC4CC4)c3)c2)cc1
 : nt, 20, -14%, ?, -6.2%, nt, -11
Cn1c(=O)[nH]c(=O)c2c1nc(Br)n2CC(O)COCc1ccccc1 (stereo not given)
 : 1.5, -1, 4%, -6%, -1.1%, 0%, -1
COc1ccc(S(=O)(=O)N2CCC(C(=O)NCc3ccccn3)CC2)cc1OC
 : -0.4, 9, 2%, -1%, 1.8%, 15%, 6
CC(=O)NC(=S)c1c(N)n(Cc2ccccc2)c(=O)n(C)c1=O
 : 7.2, nt, nt, nt, nt, -5%, -4
COc1ccc2nc(SCC(=O)NCC3CCCO3)c(C#N)cc2c1 (stereo not given)
 : 6.2, 0, -31%[15.4 µM], -18%, nt, 8%, -5

Given with each value named: part of the list above.
COc1ccc(NC(=O)[C@H](C)NC(=O)C2CCN(S(=O)(=O)c3ccc(OC)cc3)CC2)cc1
  Menin-MLL FL inh: nt	CtBP-E1A inh: -7	gsp agonist: -42%[inhibitor]	gsp antagonist: -1%	ClpP mod: -1.1%	Sfp PPTase inh: 9%	TRPV1 PAM: 18

COc1ccc(N(C)S(=O)(=O)c2cccc(C(=O)Nc3cccc(C(=O)NC4CC4)c3)c2)cc1
  Menin-MLL FL inh: nt	CtBP-E1A inh: 20	gsp agonist: -14%	gsp antagonist: ?	ClpP mod: -6.2%	Sfp PPTase inh: nt	TRPV1 PAM: -11

Cn1c(=O)[nH]c(=O)c2c1nc(Br)n2CC(O)COCc1ccccc1 (stereo not given)
  Menin-MLL FL inh: 1.5	CtBP-E1A inh: -1	gsp agonist: 4%	gsp antagonist: -6%	ClpP mod: -1.1%	Sfp PPTase inh: 0%	TRPV1 PAM: -1

COc1ccc(S(=O)(=O)N2CCC(C(=O)NCc3ccccn3)CC2)cc1OC
  Menin-MLL FL inh: -0.4	CtBP-E1A inh: 9	gsp agonist: 2%	gsp antagonist: -1%	ClpP mod: 1.8%	Sfp PPTase inh: 15%	TRPV1 PAM: 6

The listing continues:
Below each compound: Menin-MLL FL inh, CtBP-E1A inh, gsp agonist, gsp antagonist, ClpP mod, Sfp PPTase inh, TRPV1 PAM
COCCCN(C(=O)c1ccc(-c2ccc(C(C)=O)cc2)o1)c1c(N)n(CC(C)C)c(=O)[nH]c1=O
 : nt, 3, 11%, 1%, ?, nt, nt
CNCc1ccccc1Sc1cc(O)ccc1O
 : 5.5, -18, -12%[15.4 µM], -12%, 0.4%, 22µM*, -3
COc1cc(NS(=O)(=O)c2ccc(N/C=C\C(=O)c3ccc(F)cc3)cc2)nc(OC)n1
 : 1.9, -6, 2%[15.4 µM], -11%, -1.4%, -20%, 1
CCC(=O)Oc1ccc(C2N(C(=O)CC)CCN2S(=O)(=O)c2ccc(C)cc2)cc1OC (stereo not given)
 : -0.3, -5, -1%, -1%, -2.8%, 5%, -17
COc1ccc(C(=O)NCc2nnc(SCC(=O)N3CCc4ccccc43)o2)cc1OC
 : 10.0, 0, -3%, 10%, 0.7%, 24%, 1
CC(C)(Cc1ccc(O)cc1)NC(=O)CC(=O)N=Nc1c(O)[nH]c2cc(Br)ccc12
 : -2.2, nt, 4%, -16%, -0.6%, -2%, 19
CC(=O)Nc1ccc(NC(=O)C2CCCN2C(=O)Nc2ccccc2[N+](=O)[O-])cc1 (stereo not given)
 : -9.5, 7, 6%[15.4 µM], -2%, nt, 17%, 2
COc1ccc(CCNC(=O)c2cc(S(=O)(=O)N3CCCCC3)ccc2Cl)cc1
 : nt, 1, 15%[15.4 µM], -11%, nt, nt, 17
Cc1ccc(C(=O)Nc2ccn(Cc3ccc(F)cc3)n2)o1
 : 4.6, -5, -2%, 7%, -21%, -1%, -14
CN1C(=O)C(CC(=O)O)S/C1=N\N=C\c1ccc(O)cc1O (stereo not given)
 : 1.2, ?, -8%, 5%, -2.1%, -27%, -11
CC(C)C(=O)NNC(=O)c1cc2sccc2s1
 : -0.8, nt, 4%, -7%, -9.0%, 10%, -4
COc1ccccc1C/C(N)=N/OC(=O)c1ccco1
 : -0.6, 0, -23%, -8%, -1.7%, 6%, -2
COc1ccc(OCC(=O)N2c3ccc(C)cc3C3CN(C)CCC32)cc1 (stereo not given)
 : -1.4, 15, 3%[15.4 µM], 12%, nt, 16%, 6
COCCN1C(=O)/C(=C/c2ccc(OCc3ccc(C(=O)O)cc3)c(OC)c2)SC1=Nc1ccccc1
 : 1.9, 2, 14%, -35%, -1.2%, -29%, -4
COCc1nc2ccccc2n1CCc1ccccc1
 : 4.1, nt, -20%, 3%, 81%, 2%, -43
CCOC(=O)c1c(C)[nH]c(C(=O)Cn2c(=O)c3c(ncn3CC)n(Cc3ccccc3)c2=O)c1C
 : 2.4, -11, 0%, -3%, 2.1%, -9%, 9
Nn1c(SCC(=O)Nc2nc3ccccc3s2)nncc1=O
 : 7.4, -2, -12%, 2%, -0.8%, -19%, -4
NCC1CC2c3ccccc3C1c1ccccc12 (stereo not given)
 : -5.1, -7, -1%, 8%, nt, 4%, 1
Cc1ccc2nc(SCC(=O)NC3CCCC3)[nH]c2c1
 : -0.6, 2, 23%, -13%, nt, 7%, -15
CC1CCN(C2=NN3C(=N)/C(=C\c4ccc(OC(=O)c5ccco5)cc4)C(=O)N=C3S2)CC1
 : 21, -3, -35%, -17%, -5.0%, 12%, -2
O=c1c2sccc2[nH]c(=S)n1Cc1ccccc1
 : 0.2, 1, 28%[15.4 µM], 2%, -1.8%, -18%, 25
COC(=O)Nc1ccc([N+](=O)[O-])cc1OC
 : 3.9, 5, -27%, 11%, -1.6%, 15%, -8
COC(=O)Cn1c(=NC(=O)C2CC2)sc2c(C)cc(C)cc21
 : nt, 0, -100%[inhibitor], -2%, -18%, nt, nt
CC(C)NC(=O)C1CCN(C2CCN(C(=O)c3cc4c(s3)CCCCC4)CC2)CC1
 : 2.8, 7, 9%, 1%, nt, 1%, 2
C=CCC(Nc1ccco1)c1ccccc1 (stereo not given)
 : 8.4, 7, -46%[inhibitor], 2%, 1.4%, -31%, 3
COc1ccccc1/C=C(\C)C(=O)c1c(C)cc(C)[nH]c1=O
 : -0.5, 7, 25%, 3%, 0.4%, 16%, 12
CCOC(=O)N1CCC(N(C(=O)Nc2ccc(Cl)c(Cl)c2)C(C)CC)CC1 (stereo not given)
 : -1.9, -15, -8%, ?, -2.0%, 14%, -3
Brc1cccc(OCCCCN2CCCCC2)c1
 : -0.1, 5, -14%[15.4 µM], 12%, -2.2%, -12%, -8
Cc1cc(/C=N/O)c(C)n1-c1ccc(Br)cc1
 : 6.9, 2, -7%[15.4 µM], 8%, nt, -6%, 3
CCN(CC)S(=O)(=O)c1ccc(Cl)c(NC(=O)COC(=O)c2cc(-c3ccccc3Cl)nc3ccccc23)c1
 : 0.8, 2, 12%, -3%, -8.1%, 8%, 6
CSc1nc2c([nH]1)c(=S)n(C)c(=O)n2C
 : nt, -6, ?, ?, nt, nt, nt
CCNc1nc(NCC)n2c(SCC(=O)N(CC)C3CCCCC3)nnc2n1
 : 6.7, -18, -2%[15.4 µM], -2%, -0.1%, 14%, 0
O=C(O)CCC1(CCC(=O)O)CCCC(CCC(=O)O)(CCC(=O)O)C1=O
 : nt, 4, -22%, 8%, nt, nt, nt
COCCn1c(=O)[nH]c(=O)c2c(C(F)(F)F)cc(-c3cccs3)nc21
 : 9.8, -1, 13%[15.4 µM], -10%, -2.3%, 13%, 5
C#CCOCCOCCOCCNc1nc(N2CCN(C(=O)C([C@@H](C)O)n3cc([C@@H](N)CCCCN)nn3)CC2)nc(N2CCN(C(=O)[C@H](CCC(=O)O)n3cc([C@@H](N)CCCCN)nn3)CC2)n1 (stereo not given in full)
 : nt, nt, ?, 6%, 1.4%, nt, nt
CCn1c(CCNC(=O)c2ccc(Cl)cc2Cl)n[nH]c1=S
 : -2.1, 6, 10%, 5%, -0.4%, 4%, -3
CC(C)C(=O)Nc1cccc2nsnc12
 : 8.8, 6, -63%[inhibitor], -3%, -0.1%, 2%, 4
O=C(CSc1ccccc1C(=O)NCc1ccccc1)NC1CCCCCCC1
 : 6.4, -2, 5%, -49%, -6.4%, -17%, 12
C[C@H](NC(=O)c1nc[nH]c1C(=O)N[C@@H](CCCCNC(=O)OC(C)(C)C)C(=O)OC(C)(C)C)c1ccccc1
 : 0.0, -1, nt, -4%, 1.9%, 13%, -25
